PINK1 expr mod: PINK1 expression modulation; PINK1 immunofluorescence, high-content cytometry, 24 h; Potency, µM (titrated, usually from 76.6 µM), inactives show at the top dose activation (PINK1 increase), hits mostly activators; 410,000 tested, 0.2% active; AID 624263; active = well fitted activation curve with a large enough effect; inconclusive = small, poorly fitted or top-dose-only effect; inactive = flat fitted curve, though single readings scatter; cell line not stated here;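 note: potency is the fitted concentration of half-maximal effect; % of control where 0% means no effect; nearly all actives have a fitted effect of over 65% in size; a mitochondrial uncoupler was the plate control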
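Stable cell line treated 24 h with compounds at 5 concentrations (CCCP controls), then fixed and immunostained for PINK1 plus nuclear and cell stains; PINK1 immunofluorescence quantified by laser-scanning microplate cytometry.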
TRPML1 agonist: activates the human TRPML1 channel | Q9GZU1 | TRPML1-expressing cells, Ca2+ dye fluorescence, FDSS; host cell line not named in the record; reference of the full effect not given here | activation, % (concentration not given with the values) | 410,000 tested, 0.12% active; in the data active = activation above about 50%; inconclusive = about 30% to 50%; inactive = below about 30%; note: 0% is about no effect; the text of the record puts the active cut at 80%
Target sequence (Q9GZU1 whole entry, looked up): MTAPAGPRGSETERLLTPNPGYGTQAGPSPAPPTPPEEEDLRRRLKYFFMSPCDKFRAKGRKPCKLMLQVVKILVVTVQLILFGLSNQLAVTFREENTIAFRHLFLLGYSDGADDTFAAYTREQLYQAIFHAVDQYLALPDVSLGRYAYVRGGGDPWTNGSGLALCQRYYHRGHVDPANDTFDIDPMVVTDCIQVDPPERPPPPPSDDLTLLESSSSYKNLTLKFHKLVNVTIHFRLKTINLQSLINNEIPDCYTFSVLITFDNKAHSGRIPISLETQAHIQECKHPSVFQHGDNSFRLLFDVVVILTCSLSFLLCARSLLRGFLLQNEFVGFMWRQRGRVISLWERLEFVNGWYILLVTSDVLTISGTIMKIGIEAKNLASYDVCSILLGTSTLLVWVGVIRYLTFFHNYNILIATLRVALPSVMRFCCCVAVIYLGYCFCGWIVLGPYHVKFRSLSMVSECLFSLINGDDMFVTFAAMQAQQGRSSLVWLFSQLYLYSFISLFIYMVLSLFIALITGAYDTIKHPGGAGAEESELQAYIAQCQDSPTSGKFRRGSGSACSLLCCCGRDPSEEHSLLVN
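Calcium fluorescence on an FDSS kinetic reader gave the read-out. Tet-induced TRPML1-DL cells were plated overnight, dye-loaded (Ca8 with quencher, 45-90 min, room temperature, dark), then read 110 s after compound addition, and again 110 s after 4uM final 54-4 (EC80).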
TRPML1 blocker: blocks the human TRPML1 channel. Q9GZU1. TRPML1-inducible cells, Ca2+ dye fluorescence, FDSS; hits give low values; inhibition of EC80 agonist-evoked calcium signal. activity change, negative = inhibition, % (concentration not given with the values). 390,000 tested, 0.02% active. AID 624415; in the data active means activity change below about -50%; inconclusive means about -30% to -50%; inactive means above about -30%;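 note: stimulus is agonist 54-4 at its EC80 concentration; % is set by controls: 0 for no effect and ±100 for the full control effect; compound concentration not given in the record; the text of the record puts the active cut at -80%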
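TRPML1-DL cells, Tet-induced overnight (~16 h, 37 °C) at 1,500 cells/well, were loaded with Ca8 no-wash dye plus quencher for 45-90 min at room temperature. Compounds were pinned during FDSS kinetic reading; agonist 54-4 at EC80 (4 uM final) then added.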
D2 ag: activates the human D2 dopamine receptor; AID 624465; 360,000 tested, 0.084% active; P14416; activation, % (no concentration beside the values); DiscoveRx PathHunter D2 beta-arrestin, luminescence, 90 min; 100% = 57 uM dopamine signal; in the data active = activation above about 40%; inconclusive = about 15% to 40%; inactive = below about 15%; note: compound concentration not given in the record; the text of the record calls up to 30% inactive
Target sequence (P14416 whole entry, looked up): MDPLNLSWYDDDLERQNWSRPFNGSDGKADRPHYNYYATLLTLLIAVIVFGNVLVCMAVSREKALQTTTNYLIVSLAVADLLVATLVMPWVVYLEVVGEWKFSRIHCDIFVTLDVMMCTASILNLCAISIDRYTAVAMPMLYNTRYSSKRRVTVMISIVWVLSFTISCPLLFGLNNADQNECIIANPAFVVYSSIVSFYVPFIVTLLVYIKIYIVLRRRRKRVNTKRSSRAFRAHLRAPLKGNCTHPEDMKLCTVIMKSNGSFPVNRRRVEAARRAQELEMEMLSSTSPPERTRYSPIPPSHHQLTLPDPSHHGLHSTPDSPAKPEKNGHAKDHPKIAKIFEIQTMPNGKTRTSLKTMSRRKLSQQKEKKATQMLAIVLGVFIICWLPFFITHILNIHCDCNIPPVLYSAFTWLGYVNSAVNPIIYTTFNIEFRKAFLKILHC
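Agonist mode: compounds alone added to overnight-plated D2 PathHunter cells for 90 min at 37 C, with 57 uM final dopamine (EC100) defining full response. Beta-arrestin recruitment detected by chemiluminescent reagent, read after 1 h at ambient temperature.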
Six1-Eya2 blk: blocks human Six1 binding to Eya2 | Q15475+O00167 | AlphaScreen GST-Six1/His-Eya2 binding, biochemical; hits give low values; control for the full effect not named in the record | activity change, % (no concentration beside the values) | 360,000 tested, 0.56% active | AID 651725; in the data active = activity change below about -65%; inconclusive = about -30% to -65%; inactive = above about -30%; note: % is set by controls: 0 for no effect and ±100 for the full control effect; compound concentration not given in the record
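Homogeneous AlphaScreen proximity assay pairing GST-Six1 with His-tagged Eya2 (added as 5X mix: 250 nM and 500 nM) in 50 mM Tris pH 8.0, 300 mM NaCl, 1 mM TCEP. Glutathione donor and nickel acceptor beads; 1 h, 37 °C, dark.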
D2 potentiator: potentiates the human D2 dopamine receptor allosterically; P14416; DiscoveRx D2 beta-arrestin cells, luminescence, 90 min; 100% = 57 uM dopamine signal; potentiation, % (concentration not given with the values); 360,000 tested, 0.23% active; active = potentiation of 50% or more; inconclusive = 30% to 50%; inactive = 30% or less;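 note: compound concentration not given in the record; tested on top of an EC20 dose of dopamine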
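PathHunter D2 cells, attached overnight at 37 deg C, received compound in DMSO plus dopamine at EC20 (50 nM final) for 90 min at 37 deg C. Beta-arrestin recruitment was read as luminescence after 1 h with detection reagent at ambient temperature.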
Active calls of the source: *; & = joins results of further samples; [ ] = dose if it differs, or a comment.

COc1ccc(CC(=O)Nc2ccc(S(=O)(=O)Nc3onc(C)c3C)cc2)cc1OC was read as PINK1 expr mod 0.0%, TRPML1 agonist 0.2, TRPML1 blocker 1.7, D2 ag -2.4, Six1-Eya2 blk -5.2 and D2 potentiator -4.4.
`Cc1ccc(-c2csc3ncnc(N4CCN(C(=O)c5ccco5)CC4)c23)cc1` gave PINK1 expr mod -1.4%, TRPML1 agonist 1.6, TRPML1 blocker -0.2, D2 ag 2.1, Six1-Eya2 blk -23.5 and D2 potentiator -12.7.
Screening CC(=O)Nc1cc2c(cc1[N+](=O)[O-])-c1ccccc1C2=NO returned PINK1 expr mod 14.3%, TRPML1 agonist 0.3, TRPML1 blocker -1.5, D2 ag 7.7, Six1-Eya2 blk -3.0 and D2 potentiator 11.2.
Screening COc1ccc(-c2[nH]ncc2/C=N/NC(=O)c2cccc([N+](=O)[O-])c2)cc1OC returned PINK1 expr mod -0.5%, TRPML1 agonist 2.9, TRPML1 blocker -6.6, D2 ag -0.8, Six1-Eya2 blk -6.6 and D2 potentiator 0.0.
Screening COc1ccc(C2CC(=O)c3cnc4c(-c5ccccc5)c(C)nn4c3C2)c(OC)c1 (configuration not stated) returned PINK1 expr mod -0.1%, TRPML1 agonist -0.2 and TRPML1 blocker -8.0.
Screening CCOc1ccccc1NC(=O)C(OC(=O)c1ccccc1)c1ccccc1 (configuration not stated) returned PINK1 expr mod 2.7%, TRPML1 agonist 2.4, TRPML1 blocker -19.1, D2 ag -0.5, Six1-Eya2 blk 3.0 and D2 potentiator -19.7.
`O=C1C=C(NC(=O)Nc2ccc(Cl)c(Cl)c2)CCC1` gave PINK1 expr mod -0.2%, TRPML1 agonist -0.1, TRPML1 blocker -2.1, D2 ag 0.9, Six1-Eya2 blk 0.0 and D2 potentiator -8.0.
For COc1ccc2c(COC(=O)c3n[nH]c4ccccc34)cc(=O)oc2c1 the results were PINK1 expr mod inconclusive, TRPML1 agonist 1.3, TRPML1 blocker 3.8, D2 ag -1.2, Six1-Eya2 blk -9.1 and D2 potentiator -3.1.
Screening CCOC(=O)C1CCCN(C(=O)c2cccnc2Oc2ccccc2)CC1 (configuration not stated) returned PINK1 expr mod 2.0%, TRPML1 agonist -0.5, D2 ag 4.6, Six1-Eya2 blk -0.6 and D2 potentiator -4.4.
`O=C(CCc1ccc(S(=O)(=O)NCCc2ccccc2)cc1)NCc1ccc2c(c1)OCO2` gave PINK1 expr mod -0.9%, TRPML1 agonist 0.5, TRPML1 blocker 55.2, D2 ag 0.1, Six1-Eya2 blk -0.4 and D2 potentiator -1.1.
O=S(=O)(Nc1cccnc1)c1cc(Cl)ccc1Cl was read as PINK1 expr mod -1.2%[38.3 µM], TRPML1 agonist -0.3, TRPML1 blocker 0.8, D2 ag -2.0, Six1-Eya2 blk 5.4 and D2 potentiator -13.8.
Screening Oc1c(Cl)cc(Cl)cc1CNc1nc2ccccc2[nH]1 returned PINK1 expr mod 29.0%, TRPML1 agonist 0.2, TRPML1 blocker 21.0, D2 ag -1.7, Six1-Eya2 blk inconclusive and D2 potentiator -7.9.
For CCOC(=O)CSc1nc(C)nc2c1sc1nc(C)c(C(C)=O)c(-c3ccc(OC)cc3)c12 the results were PINK1 expr mod -2.6%, TRPML1 agonist 0.7, TRPML1 blocker -11.8, D2 ag -1.5, Six1-Eya2 blk 17.8 and D2 potentiator -9.1.
For Cc1ccc(C)c(NC(=S)NNc2ccc(F)cc2F)c1 the results were PINK1 expr mod 4.1%, TRPML1 agonist -0.3, TRPML1 blocker 0.1, D2 ag 7.7, Six1-Eya2 blk -3.1 and D2 potentiator 3.6.
`Oc1ccc(-c2nc(-c3ccc(F)cc3)c(-c3ccncc3)[nH]2)cc1` gave PINK1 expr mod 0.3%&3.8%, TRPML1 agonist 0.4&-0.5, TRPML1 blocker -6.0, D2 ag -4.0, Six1-Eya2 blk 3.3 and D2 potentiator -10.5.
`COc1cc(OC)cc(C(=O)Nc2nnc3n2CCS3)c1` gave PINK1 expr mod -4.7%, TRPML1 agonist 1.5 and TRPML1 blocker 12.8.
Screening Cc1cc(-n2cnnn2)ccc1C(C)C returned PINK1 expr mod 0.6%, TRPML1 agonist 0.1, TRPML1 blocker 29.7, D2 ag -2.1, Six1-Eya2 blk 4.1 and D2 potentiator -4.2.
O=C(COC(=O)CCC(=O)c1cccs1)NC1CC1 was read as PINK1 expr mod 0.3%, TRPML1 agonist -1.1, TRPML1 blocker -10.7, D2 ag -1.2, Six1-Eya2 blk 2.9 and D2 potentiator -16.0.
Screening NNC(=O)[C@H]1C[C@@H]1c1ccccc1 returned PINK1 expr mod 1.2%, TRPML1 agonist 1.1, TRPML1 blocker -7.5, D2 ag -5.7, Six1-Eya2 blk 10.1 and D2 potentiator -7.5.
`COc1ccc(S(=O)(=O)n2ccnc2)c2cccnc12` gave PINK1 expr mod 5.5%, TRPML1 agonist -0.2, TRPML1 blocker 40.5, D2 ag 2.7, Six1-Eya2 blk 1.1 and D2 potentiator -3.1.
CC(=O)c1ccc(N2CCN(c3ccc(C(N)=O)cc3[N+](=O)[O-])CC2)cc1 was read as PINK1 expr mod 1.9%, TRPML1 agonist 2.0, TRPML1 blocker -4.3, D2 ag -3.9, Six1-Eya2 blk -5.4 and D2 potentiator -4.8.
CCOC(=O)CC1(C)SC(NC(C)=O)=NN1C(C)=O (configuration not stated) was read as PINK1 expr mod 1.0%, TRPML1 agonist -0.1, TRPML1 blocker 1.3, D2 ag 0.8, Six1-Eya2 blk 3.9 and D2 potentiator -0.3.
Screening C=CCc1c(C)nc(SCc2ccccc2)[nH]c1=O returned PINK1 expr mod 3.3%, TRPML1 agonist 1.7, TRPML1 blocker 41.3, D2 ag 3.0, Six1-Eya2 blk 8.2 and D2 potentiator 11.8.
`O=C(CCn1nnnc1CN1CCOCC1)N1CCC(c2cccc(Cl)c2)C1` (configuration not stated) gave PINK1 expr mod -1.4%, TRPML1 agonist -0.2, TRPML1 blocker -14.8, D2 ag -0.7, Six1-Eya2 blk 0.9 and D2 potentiator -17.9.

Part of the list above in order of SMILES length, descending.
`COc1ccc(S(=O)(=O)n2ccnc2)c2cccnc12` gave PINK1 expr mod 5.5%, TRPML1 agonist -0.2, TRPML1 blocker 40.5, D2 ag 2.7, Six1-Eya2 blk 1.1 and D2 potentiator -3.1.
Screening NNC(=O)[C@H]1C[C@@H]1c1ccccc1 returned PINK1 expr mod 1.2%, TRPML1 agonist 1.1, TRPML1 blocker -7.5, D2 ag -5.7, Six1-Eya2 blk 10.1 and D2 potentiator -7.5.
Screening Cc1cc(-n2cnnn2)ccc1C(C)C returned PINK1 expr mod 0.6%, TRPML1 agonist 0.1, TRPML1 blocker 29.7, D2 ag -2.1, Six1-Eya2 blk 4.1 and D2 potentiator -4.2.

Following part
For COc1ccc(N2CCN(S(=O)(=O)CCNC(=O)C(C)Oc3ccccc3)CC2)cc1 (configuration not stated) the results were PINK1 expr mod -0.5%, TRPML1 agonist -0.6, TRPML1 blocker -7.9, D2 ag -1.6, Six1-Eya2 blk -1.6 and D2 potentiator -12.1.
For CC1CC(Nc2ccccc2)=CC(=O)O1 (configuration not stated) the results were PINK1 expr mod 1.4%, TRPML1 agonist -0.7, TRPML1 blocker -2.8, D2 ag -3.7, Six1-Eya2 blk -3.1 and D2 potentiator 2.0.
`COc1ccc(C(=O)C2CCCN(Cc3cc(C)c(O)c(C)c3)C2)c(OC)c1` (configuration not stated) gave PINK1 expr mod 0.3%, TRPML1 agonist 0.1, TRPML1 blocker 7.8, D2 ag -2.4, Six1-Eya2 blk -14.7 and D2 potentiator -31.6.
Screening Cn1c(=O)c2c(-c3ccccc3Br)n(C(C)(C)C)cc2n(C)c1=O returned PINK1 expr mod 0.1%, TRPML1 agonist 0.7 and TRPML1 blocker -8.0.
COc1ccc(S(=O)(=O)N2CCc3ccccc32)cc1C(=O)OCC(=O)c1c(N)n(C)c(=O)n(C)c1=O was read as PINK1 expr mod 4.4%, TRPML1 agonist -0.5, TRPML1 blocker 15.2, D2 ag -0.8, Six1-Eya2 blk -2.2 and D2 potentiator -7.1.
`COCc1cc(C)nc(SCC(=O)Nc2ccccc2C)c1C#N` gave PINK1 expr mod 4.8%, TRPML1 agonist -1.1, TRPML1 blocker 5.2, D2 ag 0.1, Six1-Eya2 blk 1.9 and D2 potentiator -2.8.
CC(C)Oc1ccc(S(=O)(=O)N2CCCCC2)cc1NC(=O)CN1C(=O)NC(C)(c2ccccc2)C1=O (configuration not stated) was read as PINK1 expr mod 5.7%, TRPML1 agonist 1.4, TRPML1 blocker -10.6, D2 ag 4.9, Six1-Eya2 blk -1.5 and D2 potentiator -1.5.
For Cc1ccc(CNCC(O)(c2ccccc2)c2ccc(F)cc2)cc1 (configuration not stated) the results were PINK1 expr mod 13.1%, TRPML1 agonist 0.0, TRPML1 blocker 17.1, D2 ag -0.1, Six1-Eya2 blk 5.0 and D2 potentiator -43.6.
`CC(C)S(=O)(=O)c1csc(C(=O)NN)c1-n1cccc1` gave PINK1 expr mod 2.0%, TRPML1 agonist -0.6, TRPML1 blocker -23.8, D2 ag -0.7, Six1-Eya2 blk -12.8 and D2 potentiator 5.7.
Screening CCNC(=O)C1CCCN(C(=O)c2cc(F)ccc2C)CC1 (configuration not stated) returned PINK1 expr mod 2.4%, TRPML1 agonist -0.6, D2 ag -2.2, Six1-Eya2 blk 1.9 and D2 potentiator 5.5.
Screening Cc1ccc(NC(=O)C2CCN(S(=O)(=O)c3c(C)n[nH]c3C)CC2)c(C)c1 returned PINK1 expr mod 1.1%, TRPML1 agonist 0.8, TRPML1 blocker 0.6, D2 ag -1.3, Six1-Eya2 blk -9.4 and D2 potentiator -3.0.
Screening CNC(=O)c1nnn(Cc2ccccc2)c1NC(C)=O returned PINK1 expr mod 5.4%[38.3 µM], TRPML1 agonist -0.7, TRPML1 blocker 12.8, D2 ag -1.1, Six1-Eya2 blk 0.0 and D2 potentiator 2.8.
Screening Cc1cc(Br)ccc1NC(=O)CN(C)C(=O)c1cc([N+](=O)[O-])ccc1N1CCOCC1 returned PINK1 expr mod -0.6%, TRPML1 agonist -0.6, TRPML1 blocker 6.3, D2 ag -7.6, Six1-Eya2 blk 6.0 and D2 potentiator -25.8.
For COCCCNC(=O)CCc1c(C)c2cc3c(C)coc3cc2oc1=O the results were PINK1 expr mod 0.9%, TRPML1 agonist 0.5, TRPML1 blocker 6.2, D2 ag -1.3, Six1-Eya2 blk -13.7 and D2 potentiator -4.8.
For CCOC(=O)C1CCCN(c2c(NCCc3ccc(S(N)(=O)=O)cc3)c(=O)c2=O)C1 (configuration not stated) the results were PINK1 expr mod 1.6%, TRPML1 agonist -0.5, TRPML1 blocker -0.6, D2 ag -4.1, Six1-Eya2 blk -4.6 and D2 potentiator -3.7.
`CCN1C(=O)S/C(=C/c2ccsc2)C1=O` gave PINK1 expr mod -0.6%, TRPML1 agonist 1.7, TRPML1 blocker -1.9, D2 ag 0.2, Six1-Eya2 blk 8.6 and D2 potentiator 2.9.
For O=C(COC(=O)c1nc(Cl)c(Cl)c(Cl)c1Cl)NCc1ccccc1 the results were PINK1 expr mod 2.0%, TRPML1 agonist -0.4, TRPML1 blocker -0.1, D2 ag 2.6, Six1-Eya2 blk -11.5 and D2 potentiator 3.0.
